High-throughput results deposited in PubChem BioAssay by National Center for Advancing Translational Sciences (NCATS).
gsp antagonist – antagonists of gsp mutant (McCune-Albright syndrome) | gsp-mutant cells, cAMP HTRF, 30 min; control for the full effect not named in the record | Potency, µM (highest dose often 76.9 µM), for inactives: at the top dose activity change, negative = inhibition, hits mostly inhibitors | 0.4% of 340,000 active | AID 624288; active = falling curve of any shape with a large fitted effect; inconclusive = falling curve, mostly with a smaller effect; inactive = flat or rising curve; cell line not stated here;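 also: intracellular cAMP measured with PDE inhibitor Ro 20-1724 present during compound exposure; potency is read from the fitted curve at half-maximal effect; % is scaled to controls: 0 for no effect and ±100 for the full control effect; nearly all actives have a fitted effect of over 65% in size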
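Cells in G418 medium, seeded 16-24 h, 37C; buffer exchange to DPBS + 1 mM CaCl2, 0.5 mM MgCl2, 0.05% BSA; cpds in DMSO + […] (300 uM stock), 30 min 37C; HTRF cAMP detection.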
Sfp PPTase inh – Sfp phosphopantetheinyl transferase inhibition | 3.5% of 310,000 active | Q9F4F7 | Potency, µM, for the others: max response, negative = inhibition, actives largely listed as inhibitors | Biochemical Sfp PPTase activity, qHTS; active = well fitted inhibition curve with a large enough effect; inconclusive = small, poorly fitted or top-dose-only effect, or another doubt; inactive = no such curve, though single readings can be large or run the other way;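 also: the enzyme is Sfp with the accession as filed and its product quenches rhodamine fluorescence; potency is read from the fitted curve at half-maximal effect; 0% = enzyme reaction without inhibitor and -100% = no enzyme wells; top concentration of the series not given in the record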
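After 15 min at room temperature with compound, 15 nM Sfp received 5 uM rhodamine-CoA plus 12.5 uM BHQ-2-ybbR (50 mM Hepes pH 7.6, 10 mM MgCl2). Rate came from the fluorescence difference over 30 min, ex 525/em 598 nm.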
gsp agonist – agonists of gsp mutant (McCune-Albright syndrome). AID 624287. 0.13% of 340,000 active. Potency, µM (series often up to 76.9 µM), for inactives: top-dose activation (cAMP increase), most hits filed as activators. gsp mutant cells, cAMP HTRF, 30 min; control for the full effect not named in the record; active = well fitted activation curve with a large enough effect; inconclusive = small, poorly fitted or top-dose-only effect, or another doubt; inactive = no such curve, though single readings can be large or run the other way; cell line not stated here;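 also: phosphodiesterase inhibitor Ro 20-1724 added with compounds to block cAMP breakdown; potency is read from the fitted curve at half-maximal effect; nearly all actives have a fitted effect of over 60% in size; about a fifth of the inactives were tested at one dose only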
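Cells stably selected in G418 were plated at 2000/well, grown 16-24 hr, then given compounds in DMSO with the PDE inhibitor […] (300 uM solution added) for 30 min at 37C; cAMP was read by HTRF.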
TRPML1 blocker – inhibitors of human TRPML1 channel; 0.02% of 390,000 active; TRPML1-inducible cells, Ca2+ dye fluorescence, FDSS; stronger effect = lower value; inhibition of EC80 agonist-evoked calcium signal; activity change, negative = inhibition, % (test concentration not listed); Q9GZU1; in the data active means activity change below about -50%; inconclusive means about -30% to -50%; inactive means above about -30%;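 also: stimulus is agonist 54-4 at its EC80 concentration; % is scaled to controls: 0 for no effect and ±100 for the full control effect; compound concentration not given in the record; the text of the record puts the active cut at -80%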
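Calcium fluorescence in TRPML1-DL cells induced overnight with Tet: a 110 s read after compound pin addition, then a 110 s antagonist read after challenge with 54-4 at 4 uM final (EC80).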
ClpP mod – qHTS Assay for Activators of ClpP | 1.9% of 340,000 active | purified B. subtilis ClpP, FRET peptide cleavage, 20 min | Potency, µM (doses to about 57.5 µM), for the others: at the top dose activity change, negative = active | AID 651965, 2013; active = well fitted falling curve with a large enough effect; inconclusive = small, poorly fitted or top-dose-only effect; inactive = no such curve, though single readings can be large or run the other way; also: potency is read from the fitted curve at half-maximal effect; the source files actives as falling curves though it sought activators and does not explain the sign; nearly all actives have a fitted effect of over 65% in size; many hits overshoot -100%
Target sequence (P80244 whole entry, looked up): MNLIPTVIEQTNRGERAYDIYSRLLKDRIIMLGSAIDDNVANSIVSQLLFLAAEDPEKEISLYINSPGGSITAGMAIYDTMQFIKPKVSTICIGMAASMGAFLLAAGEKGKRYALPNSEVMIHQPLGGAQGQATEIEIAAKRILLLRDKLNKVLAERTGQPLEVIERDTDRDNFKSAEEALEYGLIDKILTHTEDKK
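FRET quenching reversal measured ClpP activation: 10 microg/mL B. subtilis ClpP at pH 8 with the FRET-FV decapeptide, read at 430 nm after 320 nm excitation. The 20-min minus 0-min signal was scaled between DMSO/no-enzyme wells and ADEP (5.8 microM final).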
Menin MLL FP FL – displaces fluorescein MLL peptide from human menin; FP activity change, % at 61.4 µM; Fluorescence polarization, fluorescein-MLL peptide displacement from menin; 290,000 tested, under 10 active; inconclusive = falling polarisation curve, or a change in total fluorescence; inactive = total fluorescence flat and polarisation flat or rising; no compound was filed as active; the % refers to the polarisation; negative = inhibition;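 also: % of control where 0% means no effect; inhibitors lower the polarisation; unlabelled MLL peptide was the positive control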
TRPV1 PAM – enhances activation of the human vanilloid receptor TRPV1. 0.02% of 320,000 active. TRPV1-expressing cells, Fluo-8 calcium influx, capsaicin EC20 potentiation; host cell line not named in the record; control for the full effect not named in the record. potentiation, % at 8.33 µM; active means potentiation above 80%; inconclusive means 30% to 80%; inactive means below 30%; also: 0% is about no effect
Target sequence (Q8NER1 whole entry, looked up): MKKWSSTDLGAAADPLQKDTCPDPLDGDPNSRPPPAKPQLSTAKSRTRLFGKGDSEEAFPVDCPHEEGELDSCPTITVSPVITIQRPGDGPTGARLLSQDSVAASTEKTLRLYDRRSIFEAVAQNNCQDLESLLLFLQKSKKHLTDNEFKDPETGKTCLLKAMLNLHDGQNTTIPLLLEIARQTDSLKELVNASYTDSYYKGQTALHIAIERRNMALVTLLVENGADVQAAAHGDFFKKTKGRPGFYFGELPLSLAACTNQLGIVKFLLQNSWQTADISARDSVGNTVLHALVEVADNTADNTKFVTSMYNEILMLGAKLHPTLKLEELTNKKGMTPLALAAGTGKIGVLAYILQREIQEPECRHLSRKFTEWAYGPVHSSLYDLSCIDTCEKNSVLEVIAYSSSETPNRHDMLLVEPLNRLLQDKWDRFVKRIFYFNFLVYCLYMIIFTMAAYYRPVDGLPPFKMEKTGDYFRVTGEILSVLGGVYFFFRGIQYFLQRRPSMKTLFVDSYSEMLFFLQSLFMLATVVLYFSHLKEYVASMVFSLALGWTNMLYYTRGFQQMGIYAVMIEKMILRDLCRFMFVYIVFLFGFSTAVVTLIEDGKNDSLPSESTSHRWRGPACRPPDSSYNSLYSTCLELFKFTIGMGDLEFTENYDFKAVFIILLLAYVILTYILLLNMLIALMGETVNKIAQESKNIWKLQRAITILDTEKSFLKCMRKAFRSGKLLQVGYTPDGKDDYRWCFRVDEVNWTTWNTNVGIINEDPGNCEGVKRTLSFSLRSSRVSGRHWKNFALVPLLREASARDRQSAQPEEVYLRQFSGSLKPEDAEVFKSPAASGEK
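TRPV1-expressing cells were cultured overnight at 35.5C and loaded with Fluo-8 calcium dye for 40 to 90 min at room temperature. After a 10 s baseline, compound was added and calcium influx was read kinetically for 3 min (ex 480/em 520 nm).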
Starred values were filed as active, the others as inactive; ? = inconclusive; . = no result given; & = joins results of further samples; [ ] = another dose, or the depositor's remark.

SMILES	gsp antagonist	Sfp PPTase inh	gsp agonist	TRPML1 blocker	ClpP mod	Menin MLL FP FL	TRPV1 PAM
Cc1cccc(C(=O)NCC(=O)N2CCN(S(=O)(=O)c3ccccc3)CC2)c1	-2%	.	25%[15.4 µM]	8	.	.	20
CN1CCN(c2ncccc2S(=O)(=O)N2CCCCC2)CC1	14%	10%	-47%[inhibitor]	-6	-7.9%	3.0	0
CC1=C(C(=O)Nc2ccccc2F)C(c2cccs2)NC(=S)N1 (stereo not given)	1%	2%	-31%[inhibitor]	-10	.	-0.7	1
CN1CCN(C(=S)c2cn(Cc3cccc(F)c3)c3ccccc23)CC1	-2%	14%	-39%[inhibitor]	0	-1.2%	-2.9	-12
Cc1ccc(CN(c2ccc(C(=O)NCc3ccc4c(c3)OCO4)cc2)S(C)(=O)=O)cc1	-6%	9%	0%	-7	0.9%	2.2	-2
COc1ccc(NC(=O)c2cc([N+](=O)[O-])ccc2N2CCN(C)CC2)cc1	0%	19%	-2%[15.4 µM]	-1	.	-0.2	-1
Cc1ccccc1Nc1nc(N)nc(COc2ccc(C#N)cc2)n1	4%	22%	0%	-3	-6.5%	-1.3	?
COc1ccc(C2=Cc3ccc(OC(C)=O)cc3OC2)cc1	11%	.	-28%	11	-4.9%	.	.
CCOc1ccccc1CN1CCN(Cc2ccc3cccc(OC)c3n2)CC1CCO (stereo not given)	-4%	-18%	-26%	2	-23%	2.8	3
Cc1cc(NC(=O)C2COc3ccccc3O2)no1 (stereo not given)	0%	1%	-33%[inhibitor]	8	-3.0%	2.0	-2
CCCOc1ccc(NC(=O)C2CC(=O)N/C(=N/N=C(\C)CCc3ccc4c(c3)OCO4)S2)cc1 (stereo not given)	-6%	10%	-7%	0	-3.9%	-0.2	15
COc1ccccc1CN1CC(=O)N2CSC[C@H]2C1=O	10%	3%	2%	5	-3.6%	-4.0	-18
CN1C(c2ccccc2)CCOS1(=O)=O (stereo not given)	11%	11%	9%	-6	0.5%	-14	5
CCCc1cc(=O)oc2cc(OC(C)C(=O)NCc3ccccn3)c(Cl)cc12 (stereo not given)	-4%	1%	?	0	3.5%	.	2
Cc1ccc2nc(NC3=NCN(Cc4cccnc4)CN3)nc(C)c2c1	13%	5%	-11%	22	-3.5%	3.2	-2
CN1C2CCC1CC(OC(=O)c1c[nH]c3ccccc13)C2 (stereo not given)	0%&4%	6%&-7%	?	-10&6	-0.5%&0.3%	0.6&2.5&1.2	-3&-7
Cc1cc(-c2ccccc2)nc2[nH]n(-c3ccccc3)c(=O)c12	-31%	-1%	-11%	6	0.3%	4.4	2
COc1ccc(OC)c(NC(=O)c2cnn(-c3ccccc3Cl)c2NC(=O)c2ccco2)c1	-2%	15%	-9%	-5	-1.1%	0.8	6
CCOc1ccc(NC(=O)COC(=O)CN2CCCCCC2=O)cc1	13%	.	16%[15.4 µM]	-16	1.6%	.	.
CC(CC1CC(C)(C)OC1=O)C(=O)Nc1ccc([N+](=O)[O-])cc1 (stereo not given)	3%	2%	-31%[inhibitor]	23	0.8%	2.4	-14
O=C(NC(Cc1ccccc1)C(=O)O)/C(=C\c1ccccc1)NC(=O)c1ccc(Br)o1 (stereo not given)	8%	16%	6%	26	-0.9%	.	-11
O=C(Nc1cc2c(cc1Cl)OCCO2)c1ccco1	-13%	12%	-22%	-13	-3.5%	-0.4	-1
COc1ccc(CN2CCCC(C(=O)N3CCCC3)C2)cc1 (stereo not given)	8%	-9%	?	10	0.0%	0.4	2
CC(=O)NC1CCN(C(=O)N2CCCC2)CC1	-2%	0%	-16%	0	-0.7%	1.0	-12
O=c1[nH]cc(S(=O)(=O)N2CCN(c3cccc(C(F)(F)F)c3)CC2)c(=O)[nH]1	16%	.	-3%[15.4 µM]	-10	.	.	-6
Following part.
SMILES	gsp antagonist	Sfp PPTase inh	gsp agonist	TRPML1 blocker	ClpP mod	Menin MLL FP FL	TRPV1 PAM
CCOC(=O)N1CCN(c2ccc(S(=O)(=O)N3CCC(C)CC3)cc2[N+](=O)[O-])CC1	-3%	.	0%	38	-1.7%	.	-3
O=S(=O)(c1ccc(F)cc1)N(CCO)CC(O)Cn1c2ccccc2c2ccccc21 (stereo not given)	6%	2%	-45%[inhibitor]	12	-13%	-0.2	-3
O=C(CCCN1C(=O)c2ccccc2C1=O)Oc1ccc(F)cc1	-15%	6%	1%	-2	-2.3%	-0.1	-19
CCOC(=O)c1cccc(NC(=O)CSc2nnc(COc3ccc(Cl)cc3)o2)c1	1%	17%	-1%	2	-4.2%	-2.4	16
O=C(NCN1CCc2ccccc2C1)c1ccccc1	2%	5%	6%	28	-3.3%	2.2	-11
O=C(NCCSCc1ccco1)c1ccc(=O)[nH]c1	7%	-4%	-8%	0	.	11	20
Cc1ccc(C)c(NC(=O)CCCCCN2C(=O)[C@@H]3Cc4ccccc4CN3C2=O)c1	-10%	0%	?	-8	-1.5%	2.0	-4
COc1cccc(OCc2nnc(SCC(=O)NCc3ccco3)n2C)c1	9%	8%	-13%	14	1.4%	7.6	11
Cc1ccc(-c2nnc3n2N=C(c2ccc(Br)cc2)CS3)cc1	-5%	-13%	17%	14	-4.0%	2.8	.
O=C(COC(=O)c1ccncc1)NCCCc1ccccc1	4%	-8%	-51%[inhibitor]	21	0.7%	6.9	5
Cc1ccc(N/C=C2\CCCCC2=O)c(C)c1	-4%	-12%	12%	2	.	2.2	-6
COc1ccccc1N(C)S(=O)(=O)c1ccc(C(=O)N(C)Cc2cccc(OC)c2OC)cc1	.	.	-38%[inhibitor]	3	0.3%	.	.
Cc1cc(C(F)(F)F)n2ncc(-c3ccccc3)c2n1	-19%	9%	14%	-10	1.0%	1.8	1
Cc1[nH]c2ccccc2c1C(=O)COC(=O)c1ccccc1O	?	.	-4%[15.4 µM]	18	3.5µM*	.	.
N/C(=N\OC(=O)c1ccoc1)c1ccc(Br)cc1	10%	16%	-49%[inhibitor]	-3	1.1%	-3.5	3
CCNC(=S)NNC(=O)c1cccnc1	1%	0%	0%	3	-0.5%	0.1	-2
O=C(CCSc1ccc(Cl)cc1)N1CCOCC1	12%	10%	0%	-18	0.8%	1.9	11
COCCn1c(Cc2ccccc2)nnc1SCC(=O)N1CCCCC1C (stereo not given)	7%	9%	0%	7	-2.2%	2.8	-5
O=C(Nc1ncccn1)C1CCCCC1	4%	12%	3%	0	0.0%	0.2	-8
CCOC(=O)N1CCN(S(=O)(=O)N2CCCC(C(=O)NCCc3ccccc3)C2)CC1 (stereo not given)	6%	5%	-1%	-6	1.2%	-5.4	1
Cc1ccccc1-c1nnc(SCC(=O)c2c(N)n(C3CC3)c(=O)[nH]c2=O)o1	-5%	.	13%	7	0.1%	.	-2
Cc1cc(=O)oc2cc(OC(C)C(=O)Nc3ccc(N4CCOCC4)cc3)ccc12 (stereo not given)	-4%	-16%	?	20	-12%	4.8	4
CC(C)C(=O)NC(=S)Nc1ccc(S(=O)(=O)NC2CCCCC2)cc1	-8%	-3%	?	-4	0.8%	.	2
COC(=O)c1cccc(Cn2nc(C)c([N+](=O)[O-])c2C)c1	10%	7%	-17%[15.4 µM]	-3	.	-4.0	4
CCc1nnc(NS(=O)(=O)c2ccc(NCc3cc(Cl)cc(Cl)c3O)cc2)s1	-19%	19%	-12%[15.4 µM]	9	2.9%	.	22
Next results.
SMILES	gsp antagonist	Sfp PPTase inh	gsp agonist	TRPML1 blocker	ClpP mod	Menin MLL FP FL	TRPV1 PAM
Cc1cc2occ(CC(=O)N(CC(C)C)c3c(N)n(Cc4ccccc4)c(=O)[nH]c3=O)c2cc1C	1%	.	18%[15.4 µM]	0	.	.	-2
COC(=O)c1sc(NC(=O)c2ccc([N+](=O)[O-])o2)c(C#N)c1C	?	25µM*	-19%	3	-3.9%	13	13
CCOc1cccc(NC(=O)c2cccc(F)c2)c1	-4%	24%	?	-4	-0.7%	0.2	-14
O=C(O)c1ccccc1C(=O)Nc1ccc(Nc2ccccc2)cc1	.	.	-16%	-10	-1.6%	.	.
CCCN1CNC(=S)N(c2cc(C)ccc2C)C1	7%	0%	9%	-19	-5.4%	0.2	2
O=C(CSc1nc(-c2ccccc2)c(-c2ccccc2)o1)NCCCO	0%	2%	11%	21	.	.	11
OCCN1CCN(C2Cc3cc(Cl)ccc3Sc3ccc(Cl)cc32)CC1 (stereo not given) (tested in a mixture with another compound)	28%	-28%	4%	0	-0.7%	3.7	-8
COc1cc(NS(=O)(=O)c2ccc(NC(=O)C34CC5CC(CC(C5)C3)C4)cc2)ncn1	-13%	10%	2%	-19	0.3%	4.6	-4
COc1cccc(Oc2coc3cc(OC(=O)N4CCOCC4)ccc3c2=O)c1	-10%	13%	16%[15.4 µM]	-12	.	0.2	-7
Cc1cccc(N(C)S(=O)(=O)c2ccc3[nH]c(=O)c(=O)[nH]c3c2)c1	-5%	4%	-16%	-10	?	4.7	-11
Cc1ccccc1C(=O)NCCCNC(=O)c1ccccn1	13%	13%	22%	-6	.	3.4	?
CCOc1ccc(C(=O)Nc2ccc(S(=O)(=O)N3C[C@@H]4C[C@@H](C3)c3cccc(=O)n3C4)cc2)cc1	-7%	.	.	7	-17%	.	2
COC(=O)C(=O)C1CCc2c(Cl)cc(OC)c(OC)c2C1=O (stereo not given)	-3%	.	0%	0	-1.9%	.	.
Fc1cnc(N2CCc3ccccc32)nc1N1CCc2ccccc21	9%	13%	32%	8	?	4.9	?
Cc1ccccc1NC(=O)C1CCN(S(=O)(=O)c2ccc3c(c2)NC(=O)C(C)S3)CC1 (stereo not given)	-12%	15%	18%	2	0.3%	.	1
CC(C)OP(=O)(c1ccccc1)c1ccccc1	-2%	9%	3%[15.4 µM]	30	-1.5%	-0.8	-23
CC1CCCCC1NC(=S)NC(=O)c1ccccc1Br (stereo not given)	2%	-1%	8%	10	3.1%	3.3	-15
